FPRL1 ligand: ligands of human FPRL1, also counter-screen for FPR ligands; P25090; FPRL1-expressing cells, fluorescent ligand binding inhibition, flow cytometry; inhibition, %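 (tested at 6.7 µM)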; 24,000 tested, 0.3% active; AID 441;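 further: 0% = buffer alone and 100% = receptor blocker peptide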
Target sequence (P25090 whole entry, looked up): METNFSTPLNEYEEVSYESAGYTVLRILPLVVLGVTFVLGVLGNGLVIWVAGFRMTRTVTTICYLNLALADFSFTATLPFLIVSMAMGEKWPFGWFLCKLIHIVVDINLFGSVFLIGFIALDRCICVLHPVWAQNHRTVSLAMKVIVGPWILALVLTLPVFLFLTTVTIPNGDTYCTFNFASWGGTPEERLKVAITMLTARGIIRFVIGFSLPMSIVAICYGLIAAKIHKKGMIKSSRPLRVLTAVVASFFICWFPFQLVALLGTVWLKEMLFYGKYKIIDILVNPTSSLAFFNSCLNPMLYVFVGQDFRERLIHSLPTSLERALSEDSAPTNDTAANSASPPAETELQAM
FPR ligand: binds the human formylpeptide receptor FPR. 24,000 tested, 0.74% active. FPR-expressing cells, fluorescent ligand binding, flow cytometry. AID 440. inhibition, %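 (tested at 6.7 µM)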. P21462;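 further: 0% = buffer wells and 100% = receptor blocker peptide wells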
Target sequence (P21462 whole entry, looked up): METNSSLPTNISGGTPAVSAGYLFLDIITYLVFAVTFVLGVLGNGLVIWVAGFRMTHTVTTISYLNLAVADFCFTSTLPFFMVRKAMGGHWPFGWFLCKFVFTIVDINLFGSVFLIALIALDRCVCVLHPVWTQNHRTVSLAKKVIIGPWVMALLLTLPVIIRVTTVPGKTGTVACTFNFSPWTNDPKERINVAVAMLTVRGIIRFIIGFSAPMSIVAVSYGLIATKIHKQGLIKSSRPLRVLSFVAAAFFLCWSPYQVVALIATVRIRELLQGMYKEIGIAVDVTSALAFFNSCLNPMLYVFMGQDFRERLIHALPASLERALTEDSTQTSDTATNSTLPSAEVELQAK
VCAM-1 inhibition: suppression of endothelial VCAM-1 upregulation – cell-based, plate reader, pooled HUVEC, TNFa stimulus (AID 454) | inhibition, % at 5 µM | HUVEC TNFa-induced VCAM-1 surface immunofluorescence, plate reader; numbers were filed only for top-ranked candidate wells | 10,000 tested, 0.2% active;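 active means compound among top-ranked inhibitors of TNF-induced VCAM-1 adhesion protein staining, with the hit upheld by image or statistical review; inactive means the rest, including hits rejected on review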;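 further: 0% = TNFa with vehicle and 100% = cells without TNFa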
VCAM-1 augmentation: boosters of cytokine-driven VCAM-1 levels – imaging, high-content imaging, pooled HUVEC, TNFa stimulus (AID 457); calls only; Pooled HUVEC, TNFa-induced VCAM-1 immunofluorescence imaging; hits of this screen are not shown here; 10,000 tested, 0.2% active;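 active means a top-ranked rise in VCAM-1 staining upheld on image or statistical review; inactive means the rest, including candidates rejected on review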;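 further: compounds tested at 5 µM in the well; cells exposed to compound for 24 hours before fixing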
VCAM-1 down imaging: suppression of endothelial VCAM-1 upregulation – imaging, high-content imaging, pooled HUVEC, TNFa stimulus (AID 456). inhibition, % at 5 µM, or IC50 in µM where a hit was titrated. 10,000 tested, 0.2% active. HUVEC TNFa-induced VCAM-1 surface expression, immunofluorescence imaging; numbers were filed only for top-ranked candidate wells;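 active means top tenth filtered wells with inhibition above zero that passed visual or statistical confirmation; inactive means the rest, including hits rejected on review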;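 further: 0% = stimulated vehicle wells and 100% = unstimulated cells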
* marks the source's active call; other numbers are inactive results; i = inactive; / = no result given.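 How the source made its calls, unless noted: active means mean above 30%; inconclusive means self-fluorescent; inactive means the rest.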 A portion of the library (hit frequency here may not be typical).

SMILES	FPRL1 ligand	FPR ligand	VCAM-1 inhibition	VCAM-1 augmentation	VCAM-1 down imaging
CCOCC(=O)Nc1nc2c(s1)C(=O)CC(C)(C)C2	2	-2	i	i	i
Cc1c(O)c(CN2CCCCC2)cc2c3c(c(=O)oc12)CCC3	10	4	i	i	i
CCCNC(=O)CS(=O)Cc1nc(-c2ccccc2C)oc1C (stereo unspecified)	-2	-2	/	/	/
CCSc1nc2c(c(=O)[nH]1)C(c1cccnc1)C(C(=O)OC)=C(C)N2 (stereo unspecified)	-6	2	/	/	/
O=C(Cn1cc2c(n1)CCCC2)NCc1ccccn1	0	-4	/	/	/
COCCNC(=O)C1CC(=O)N(c2ccc(F)c(Cl)c2)C1 (stereo unspecified)	0	0	/	/	/
CCOC(=O)C1CCN(C(=O)CSCc2nc(-c3ccc(OCC)cc3)oc2C)CC1	-2	6	/	/	/
COc1cccc(NC(=O)c2ccco2)c1	3	-7	i	i	i
CCN(CCNC(=O)C1CC(=O)N(CCc2ccccc2)C1)c1ccccc1 (stereo unspecified)	1	-3	/	/	/
CC(C)CCNC(=O)CCCOc1cc(=O)n(C)c2ccccc12	1	1	/	/	/
CC(=O)[C@@]1(O)CC[C@H]2[C@@H]3C[C@H](C)C4=CC(=O)CC[C@]4(C)[C@H]3CC[C@@]21C	7	-8	i	i	i
CC1CCCCN1CCNC(=O)c1cc2c(-c3ccccc3F)nn(C)c2s1 (stereo unspecified)	7	3	/	/	/
CCC(C)(C(=O)NC1CCCCC1)N(C(=O)C1CCC(=O)N1)c1ccc(C)cc1 (stereo unspecified)	0	1	/	/	/
Cc1cc(Oc2ccccc2)nc(-c2ccccc2)n1	6	-3	i	i	i
CCCCCOC(=O)C1=C(C)N(C)C(=O)NC1c1cc(Br)c(O)c(OC)c1 (stereo unspecified)	1	-3	i	i	i
CCOC(=O)c1sc(NC(=O)CCn2nnc3ccccc32)c(C(=O)OCC)c1C	2	3	/	/	/
CCOC(=O)/C(C#N)=C1/C=CN(C)C=N1	2	-1	/	/	/
Cc1ccccc1CSc1ncc(C#N)c(N)n1	-8	-2	/	/	/
N#C/C(C(=O)N1CCOCC1)=C1/SC(Cc2ccccc2)C(=O)N1c1ccccc1 (stereo unspecified)	-3	3	i	i	i
Cc1nnc(N2C(=O)C(O)=C(C(=O)c3ccco3)C2c2ccc(C(C)C)cc2)s1 (stereo unspecified)	-16	11	/	/	/
COc1cccc(N2C(=O)C3CCCN3C2c2ccc(N(C)C)cc2)c1 (stereo unspecified)	0	0	/	/	/
CC1=C/C(=C\c2ccc3c(c2)OCO3)C(=O)S1	2	5	/	/	/
O=C1CSC(c2ccccc2F)N1c1cc(Cl)ccc1O (stereo unspecified)	-1	-2	/	/	/
CCOC(=O)N1CCN(C(=O)c2ccc3c(c2)N(CC)CCS3)CC1	-1	-5	/	/	/
CSc1nnc(-c2cnccn2)n1Cc1ccccc1	1	-4	i	i	i
C=C(C)c1cccc(C(C)(C)NC(=O)N2CCN(c3ccccn3)CC2)c1	0	-7	/	/	/
O=C(c1noc2c1CCCC2)N1CCN(c2ccc(F)cc2)CC1	2	-1	/	/	/
O=C1CCc2cc(S(=O)(=O)N3CCC(C(=O)NC4CCCc5ccccc54)CC3)ccc2N1 (stereo unspecified)	-2	0	/	/	/
COc1ccc(OC)c(C2C(C(=O)c3ccc(C)o3)=C(O)C(=O)N2CCCN2CCOCC2)c1 (stereo unspecified)	-2	2	/	/	/
COC(=O)c1ccc(CNC(=O)COc2ccccc2Br)o1	4	-10	i	i	i
CCN(CC)C(=O)c1cc(-c2ccc(Br)cc2)on1	2	1	/	/	/
CCOC(=O)N1CCC(N2Cc3cccc(C(=O)N4CC(C)CC(C)C4)c3C2=O)CC1 (stereo unspecified)	0	1	/	/	/
CCOC(=O)N1CCC(NC(=O)c2cc3c(=O)n(C)c4ccccc4c3n2C)CC1	-1	0	i	i	i
O=C(CSc1nnc(Cn2c(=O)sc3ccccc32)n1CCc1ccccc1)N1CCCC1	4	4	/	/	/
Cc1cnc(SCCc2ccncc2)nc1C	-4	-2	i	i	i
Cc1ccc(C)c(OCC(=O)Nc2ccc3c(c2)OCO3)c1	-1	2	/	/	/

Part of the list above in order of molar mass, low to high:
SMILES	FPRL1 ligand	FPR ligand	VCAM-1 inhibition	VCAM-1 augmentation	VCAM-1 down imaging
CCOC(=O)/C(C#N)=C1/C=CN(C)C=N1	2	-1	/	/	/
CCOCC(=O)Nc1nc2c(s1)C(=O)CC(C)(C)C2	2	-2	i	i	i
CCOC(=O)c1sc(NC(=O)CCn2nnc3ccccc32)c(C(=O)OCC)c1C	2	3	/	/	/
COc1ccc(OC)c(C2C(C(=O)c3ccc(C)o3)=C(O)C(=O)N2CCCN2CCOCC2)c1 (stereo unspecified)	-2	2	/	/	/

(cont.)
SMILES	FPRL1 ligand	FPR ligand	VCAM-1 inhibition	VCAM-1 augmentation	VCAM-1 down imaging
COc1ccc(N2CCN(C(c3cccs3)C(C)NS(=O)(=O)c3ccccc3)CC2)cc1 (stereo unspecified)	5	4	/	/	/
CCOC(=O)c1ccccc1NC(=O)CSc1nnc(COc2ccccc2C)n1C	-2	-5	i	i	i
COCCOC(=O)C1=C(C)N=C2SCCC(=O)N2C1c1cc(Br)ccc1OC (stereo unspecified)	-5	0	/	/	/
Cc1ccc(N(CC(=O)N2CCN(C3CCCCC3)CC2)S(=O)(=O)c2cccnc2)cc1	-9	-6	/	/	/
CCn1cc(C(=O)NC2CCCCCC2)c2cc(OC)c(OC)cc2c1=O	-10	-8	/	/	/
O=C(CCn1nc(-c2ccccc2)ccc1=O)N1CCN(c2ccccn2)CC1	7	0	/	/	/
CCCCN1C(=O)C2C(c3ccc(OC)cc3O)NC(CC(C)C)(C(=O)O)C2C1=O (stereo unspecified)	3	12	/	/	/
CN(C(=O)c1ccccn1)c1nnc(-c2cccnc2)s1	0	-3	i	i	i
CC(C)CCNC(=O)c1ccc2c(c1)N(Cc1ccccc1)C(=O)CS2=O (stereo unspecified)	9	1	/	/	/
Cc1nc2sc(C(c3cccs3)N3CCC4(CC3)OCCO4)c(O)n2n1 (stereo unspecified)	2	-5	/	/	/
CCOc1ccccc1NC(=O)CCS(=O)(=O)c1cccc2nonc12	-5	-4	/	/	/
COc1ccccc1-n1c(SCC(=O)Nc2ccc3c(c2)OCO3)nc2c(c1=O)SCC2	-2	3	i	i	i
CCOC(=O)C1C(=O)OC(C)(C)C1C(C)C(=O)c1ccc(OC)cc1 (stereo unspecified)	-6	17	i	i	i
O=c1cc(N2CCC3(CC2)OCCO3)[nH]c(=O)n1-c1ccc(Cl)cc1	-8	6	/	/	/
COc1ccc(N2CCN(CCCNC(=O)CCCn3c(=O)[nH]c4ccsc4c3=O)CC2)cc1	-5	-5	/	/	/
CCOC(=O)c1c(C)[nH]c(C)c1C(=O)COc1ccc(NC(=O)c2ccco2)cc1	5	10	/	/	/
CC1CCN(C(=O)CSc2nnc(-c3ccco3)o2)CC1	-3	1	/	/	/
CC1(C)CC(=O)C2=C(C1)OC(N)=C(C#N)C2c1cccc(OC(=O)c2ccco2)c1 (stereo unspecified)	-3	4	/	/	/
CCOC(=O)Nc1ccc(C(=O)NCC2CCCO2)cc1 (stereo unspecified)	0	-2	/	/	/
COc1ccc(CNC(=O)c2nnn(Cc3ccc(OC)cc3)c2N)cc1	-1	-1	i	i	i
Cc1nn(C)c(C)c1S(=O)(=O)N1CCCC(C(=O)NCCc2ccc(Cl)cc2)C1 (stereo unspecified)	0	-5	/	/	/
Cc1nc2sc(C(c3cccs3)N3CCOCC3)c(O)n2n1 (stereo unspecified)	-2	-2	i	i	i
CSc1ccccc1NS(=O)(=O)c1ccccc1	29	31*	i	i	i
COc1ccc(C)cc1NC(=O)COCC(=O)O	1	-3	i	i	i

Filtered by structure, the entries above containing two or more sulfur atoms (6)
SMILES	FPRL1 ligand	FPR ligand	VCAM-1 inhibition	VCAM-1 augmentation	VCAM-1 down imaging
O=C(CSc1nnc(Cn2c(=O)sc3ccccc32)n1CCc1ccccc1)N1CCCC1	4	4	/	/	/
COc1ccc(N2CCN(C(c3cccs3)C(C)NS(=O)(=O)c3ccccc3)CC2)cc1 (stereo unspecified)	5	4	/	/	/
Cc1nc2sc(C(c3cccs3)N3CCC4(CC3)OCCO4)c(O)n2n1 (stereo unspecified)	2	-5	/	/	/
COc1ccccc1-n1c(SCC(=O)Nc2ccc3c(c2)OCO3)nc2c(c1=O)SCC2	-2	3	i	i	i
Cc1nc2sc(C(c3cccs3)N3CCOCC3)c(O)n2n1 (stereo unspecified)	-2	-2	i	i	i
CSc1ccccc1NS(=O)(=O)c1ccccc1	29	31*	i	i	i

Next section.
SMILES	FPRL1 ligand	FPR ligand	VCAM-1 inhibition	VCAM-1 augmentation	VCAM-1 down imaging
CCN(CC)C(=O)c1cn(CC)c(=O)c2cc(OC)c(OC)cc12	0	2	/	/	/
COc1ccc(-c2cc(C(F)(F)F)nc(N3CCCCCC3)n2)cc1	13	4	/	/	/
Cn1c(=O)c2c(nc(CN3CCc4ccccc4C3)n2Cc2cccc(Cl)c2)n(C)c1=O	-3	-1	i	i	i
CC(=O)c1ccc(OCC(=O)NC2CCS(=O)(=O)C2)cc1 (stereo unspecified)	0	-1	/	/	/
CC1CCCN(C(=O)C2c3ccccc3C(=O)N3CCc4ccccc4C23)C1 (stereo unspecified)	4	-1	/	/	/
CC(C)Oc1ccc(C(CC(=O)O)NC(=O)CSc2ncn[nH]2)cc1 (stereo unspecified)	-5	-1	/	/	/
CCCCCOC(=O)NCCOC(=O)Nc1ccc(C(=O)OCC)cc1	-5	0	/	/	/
CCN1CCN(c2cc(C)c3cc(NC(=O)c4ccc5c(c4)OCO5)ccc3n2)CC1	4	0	/	/	/
O=C(CCn1c(=O)sc2ccccc21)NCCCn1ccnc1	5	2	/	/	/
Fc1cccc(CSc2nc3ccncc3[nH]2)c1	-1	-2	/	/	/
CCCOc1ccc(C(CC(=O)O)NC(=O)c2ccc3c(c2)OCO3)cc1 (stereo unspecified)	0	-2	/	/	/
COCCNC(=O)c1cc(-c2cccs2)on1	-2	0	i	i	i
CCOC(=O)N1CCN(C(=O)c2cc(-c3ccc(OCC)cc3)nc3ccccc23)CC1	1	13	/	/	/
COc1cccc(-c2cc(C(F)(F)F)nc(N3CCCCC3)n2)c1	12	-8	/	/	/
CC(C)Cn1c(N)c(C(=O)COC(=O)c2ccc3c(c2)OCCO3)c(=O)n(C)c1=O	2	-2	i	i	i
O=C(CNS(=O)(=O)c1ccccc1)NCc1ccccn1	1	2	i	i	i
CCc1ccccc1S(=O)(=O)Cc1ccc(C(=O)N2CCN(c3ccccn3)CC2)o1	-8	5	/	/	/
Cc1ccc(CS(=O)(=O)Cc2ccc(C(=O)NCc3cccnc3)o2)cc1	-2	-3	/	/	/
CCOC(=O)N1CCN(C(=O)c2cccc(-n3c(=S)[nH]c4cc(Cl)ccc4c3=O)c2)CC1	1	27	/	/	/
CCOc1ccc2nc(SCC(=O)N3CCCCCC3)c(C#N)cc2c1	3	-1	i	i	i
COc1ccc(C2C(C(=O)N3CCN(c4ccccn4)CC3)CC(=O)N2c2ccc(OC)cc2)cc1 (stereo unspecified)	-3	0	/	/	/
O=C(NC(NC1CCS(=O)(=O)C1)C(=O)c1ccccc1)c1ccc(Cl)cc1 (stereo unspecified)	2	1	/	/	/
CCn1c(SCC(=O)Nc2ccc(Cl)cc2)nnc1C1CC1	-4	-1	i	i	i
CCn1c2ccccc2c2cc(N)ccc21	2	8	i	i	i
COCCn1nnnc1C(C(C)C)N(Cc1cccnc1)Cc1ccccc1Cl (stereo unspecified)	-1	6	i	i	i
COc1ccc(CCNC(=O)CCN2C(=O)C(C)Oc3ccc(C)cc32)cc1OC (stereo unspecified)	-9	0	/	/	/
CCCS(=O)(=O)N1CCC(C(=O)NCCCN(C)Cc2ccccc2)CC1	-3	-2	/	/	/
O=C(CN1CCN(CC(=O)Nc2ccccc2Cl)CC1)Nc1ccc2c(c1)OCCO2	-21	1	/	/	/
Cc1cccc(NC(=O)C2CCN(S(=O)(=O)c3cccc4nsnc34)CC2)n1	0	-3	/	/	/
COc1ccc(-n2c(=O)c3c4c(sc3n3c(C)nnc23)CCCC4)cc1	-3	1	i	i	i
CCOc1ccc(-n2c(SCC(=O)NC(C)CC)nc3n[nH]c(C)c3c2=N)cc1 (stereo unspecified)	2	3	/	/	/

Assay outcomes as filed in PubChem.
